Assay outcomes from PubChem BioAssay.
VCAM-1 down – inhibitors of TNFa-induced VCAM-1 surface display, cell-based, plate reader, pooled HUVEC, TNFa stimulus (AID 454); HUVEC TNFa-induced VCAM-1 surface immunofluorescence, plate reader; numbers were filed only for top-ranked candidate wells; inhibition, % at 5 µM; hit rate 0.2% among 10,000;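 active = compound among top-ranked inhibitors of TNF-induced VCAM-1 adhesion protein staining, with the hit upheld by image or statistical review; inactive = the rest, including hits rejected on review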;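 note: 0% = TNFa with vehicle and 100% = cells without TNFa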
FPR binder – ligands of human FPR, also counter-screen for FPRL1 ligands; FPR-expressing cells, fluorescent ligand binding, flow cytometry; P21462; hit rate 0.74% among 24,000; inhibition, %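 (tested at 6.7 µM)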;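 note: 0% = buffer wells and 100% = receptor blocker peptide wells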
Target sequence (P21462 whole entry, looked up): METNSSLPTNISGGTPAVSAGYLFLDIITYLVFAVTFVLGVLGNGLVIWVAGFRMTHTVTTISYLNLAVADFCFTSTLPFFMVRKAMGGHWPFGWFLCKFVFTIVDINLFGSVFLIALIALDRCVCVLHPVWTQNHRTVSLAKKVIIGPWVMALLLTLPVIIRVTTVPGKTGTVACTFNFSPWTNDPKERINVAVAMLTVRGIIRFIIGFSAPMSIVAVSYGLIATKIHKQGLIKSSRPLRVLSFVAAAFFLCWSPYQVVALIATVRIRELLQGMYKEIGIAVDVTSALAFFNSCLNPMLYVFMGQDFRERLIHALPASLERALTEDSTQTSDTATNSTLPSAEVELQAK
VCAM-1 down imaging – inhibitors of TNFa-induced VCAM-1 surface display, imaging, high-content imaging, pooled HUVEC, TNFa stimulus (AID 456); HUVEC TNFa-induced VCAM-1 surface expression, immunofluorescence imaging; numbers were filed only for top-ranked candidate wells; inhibition, % at 5 µM; hits with a dose series show IC50 in µM; hit rate 0.2% among 10,000;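 active = top tenth filtered wells with inhibition above zero that passed visual or statistical confirmation; inactive = the rest, including hits rejected on review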;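 note: 0% = stimulated vehicle wells and 100% = unstimulated cells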
FPRL1 ligand – binds the human formylpeptide receptor-like-1 FPRL1; FPRL1-expressing cells, fluorescent ligand binding inhibition, flow cytometry; inhibition, %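 (tested at 6.7 µM)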; hit rate 0.3% among 24,000; P25090;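 note: 0% = buffer alone and 100% = receptor blocker peptide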
Target sequence (P25090 whole entry, looked up): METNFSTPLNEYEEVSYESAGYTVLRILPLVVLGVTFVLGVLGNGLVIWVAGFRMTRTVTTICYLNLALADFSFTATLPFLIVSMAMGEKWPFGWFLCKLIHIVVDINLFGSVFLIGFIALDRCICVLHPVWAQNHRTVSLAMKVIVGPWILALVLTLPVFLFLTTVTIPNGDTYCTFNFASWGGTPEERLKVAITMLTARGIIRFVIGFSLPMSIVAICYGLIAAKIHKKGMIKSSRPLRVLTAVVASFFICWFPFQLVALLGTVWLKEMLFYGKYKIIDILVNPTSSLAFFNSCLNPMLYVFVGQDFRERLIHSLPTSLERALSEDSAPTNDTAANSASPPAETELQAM
VCAM-1 up imaging – enhancers of VCAM-1 display on endothelial cells, imaging, high-content imaging, pooled HUVEC, TNFa stimulus (AID 457) | Pooled HUVEC, TNFa-induced VCAM-1 immunofluorescence imaging; hits of this screen are not shown here | calls only | hit rate 0.2% among 10,000;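 active = a top-ranked rise in VCAM-1 staining upheld on image or statistical review; inactive = the rest, including candidates rejected on review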;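 note: compounds tested at 5 µM in the well; cells exposed to compound for 24 hours before fixing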
* = called active by the depositor; i = inactive; . = no result given.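 Rule for the calls, unless noted: active = mean above 30%; inconclusive = self-fluorescent; inactive = the rest.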

SMILES	VCAM-1 down	FPR binder	VCAM-1 down imaging	FPRL1 ligand	VCAM-1 up imaging
COc1cc(OC)c(NC(=O)CCNS(=O)(=O)c2cc(Br)cnc2N)cc1Cl	.	-3	.	-9	.
O=C(Cn1nc(-c2ccc(Cl)cc2)ccc1=O)NCCCN1CCN(Cc2ccccc2)CC1	i	2	17µM*	4	i
CCOC(=O)C1=C(c2ccccc2)NC(SC)=C(C#N)C1c1ccco1 (configuration not stated)	.	-2	.	-3	.
Cn1c(=O)[nH]c(=O)c2[nH]c(CN3CCN(C(=O)c4ccco4)CC3)nc21	i	-9	i	-1	i
Cc1cccnc1NC(=O)C1CCN(S(=O)(=O)c2ccc3c(c2)CCC(=O)N3)CC1	.	-4	.	1	.
CCOc1cc2c(C)cc(=O)oc2cc1Cl	.	2	.	0	.
CCOC(=O)c1cc(C(C)(C)C)oc1CN	i	3	i	-3	i
COc1cccc(NC(=O)CN2CCN(c3ccc(F)cc3)CC2)c1	.	4	.	1	.
COC(=O)CNC(=O)Cn1ccc2ccccc2c1=O	.	3	.	2	.
Cn1cccc1Cc1nnc(SCC(=O)Nc2nccs2)n1CCc1ccccc1	.	10	.	6	.
Cc1cc(C)n(CCc2nc3c4ccccc4n(CC(=O)Nc4ccc(Cl)cc4F)c(=O)n3n2)n1	.	5	.	-7	.
COc1ccc(CCNC(=O)C2CCCN(Cc3nc(-c4ccccc4C)oc3C)C2)cc1OC (configuration not stated)	.	3	.	-4	.
Cc1ccc(Cl)cc1NC(=O)c1ocnc1C	.	1	.	0	.
CCN(CC)S(=O)(=O)c1cccc(C(=O)Nc2ccccc2C(=O)N2CCOCC2)c1	.	-1	.	0	.
CCSc1nc(C)nc2c1oc1ccccc12	i	-5	i	-3	i
CN1CCN(S(=O)(=O)c2ccc(NC(=O)c3ccc(F)cc3)cc2)CC1	i	-4	i	5	i
Cc1ccccc1Cn1c2ccccc2c2cn[nH]c(=O)c21	.	-5	.	-13	.
COC(=O)c1ccc(C2CC(=O)NC3=C2C(=O)CCC3)cc1 (configuration not stated)	.	0	.	4	.
Cc1ccccc1NC(=O)NCCN1C(=O)C2C3C=CC(C3)C2C1=O (configuration not stated)	.	-2	.	1	.
CCN(CC)CCCNC(=O)C1CCC(=O)N(c2ccc(OC)cc2)C1c1ccc(F)cc1 (configuration not stated)	.	2	.	-4	.
Cc1ccccc1-c1nc(CS(=O)CC(=O)NCCN2CCN(Cc3ccccc3)CC2)c(C)o1 (configuration not stated)	.	3	.	-4	.
CC(=O)c1c(C)[nH]c(C(=O)NC2CCCCC2)c1C	.	-2	.	-5	.
C=CCn1c(SCc2nc(N)nc(N3CCCCC3)n2)nnc1-c1ccco1	.	0	.	0	.
O=C1c2ccccc2C(Nc2ccc3c(c2)OCCO3)N1Cc1ccco1 (configuration not stated)	i	2	i	3	i
CCC(=O)Oc1ccc(C/C(=N\O)c2ccc(O)cc2O)o1	i	-6	i	0	i

Reprinted from the listing for reference:
SMILES	VCAM-1 down	FPR binder	VCAM-1 down imaging	FPRL1 ligand	VCAM-1 up imaging
CCOC(=O)c1cc(C(C)(C)C)oc1CN	i	3	i	-3	i
COc1cccc(NC(=O)CN2CCN(c3ccc(F)cc3)CC2)c1	.	4	.	1	.
COC(=O)CNC(=O)Cn1ccc2ccccc2c1=O	.	3	.	2	.
Cn1cccc1Cc1nnc(SCC(=O)Nc2nccs2)n1CCc1ccccc1	.	10	.	6	.
Cc1cc(C)n(CCc2nc3c4ccccc4n(CC(=O)Nc4ccc(Cl)cc4F)c(=O)n3n2)n1	.	5	.	-7	.
COc1ccc(CCNC(=O)C2CCCN(Cc3nc(-c4ccccc4C)oc3C)C2)cc1OC (configuration not stated)	.	3	.	-4	.
Cc1ccc(Cl)cc1NC(=O)c1ocnc1C	.	1	.	0	.
CCN(CC)S(=O)(=O)c1cccc(C(=O)Nc2ccccc2C(=O)N2CCOCC2)c1	.	-1	.	0	.
CCSc1nc(C)nc2c1oc1ccccc12	i	-5	i	-3	i
CN1CCN(S(=O)(=O)c2ccc(NC(=O)c3ccc(F)cc3)cc2)CC1	i	-4	i	5	i
Cc1ccccc1Cn1c2ccccc2c2cn[nH]c(=O)c21	.	-5	.	-13	.
COC(=O)c1ccc(C2CC(=O)NC3=C2C(=O)CCC3)cc1 (configuration not stated)	.	0	.	4	.
Cc1ccccc1NC(=O)NCCN1C(=O)C2C3C=CC(C3)C2C1=O (configuration not stated)	.	-2	.	1	.
CCN(CC)CCCNC(=O)C1CCC(=O)N(c2ccc(OC)cc2)C1c1ccc(F)cc1 (configuration not stated)	.	2	.	-4	.

The listing picks up with the 2 entries that preceded the break.
SMILES	VCAM-1 down	FPR binder	VCAM-1 down imaging	FPRL1 ligand	VCAM-1 up imaging
O=C1c2ccccc2C(Nc2ccc3c(c2)OCCO3)N1Cc1ccco1 (configuration not stated)	i	2	i	3	i
CCC(=O)Oc1ccc(C/C(=N\O)c2ccc(O)cc2O)o1	i	-6	i	0	i
COc1ccc(NC(=O)C2CCN(S(=O)(=O)c3cccc4cccnc34)CC2)cc1OC	.	-5	.	-4	.
CC(=O)Nc1nc(C=C(Cl)Cl)cs1	.	-8	.	-5	.
COc1ccc(OC)c(N2Cc3cc(C)c(C)cc3C2)c1	i	14	i	1	i
COC(=O)C1=C(C)C(c2cccs2)NC(=O)N1C (configuration not stated)	i	-2	i	5	i
Cc1ccc(S(=O)(=O)NCCN2CCOCC2)cc1C	i	-15	i	-7	i
COc1ccc2c(c1)[nH]c1c(=O)n(CC3CCCO3)cnc12 (configuration not stated)	i	-6	i	-2	i
O=C(CCc1nc(-c2cccs2)no1)Nc1cnc2ccccc2c1	.	-20	.	0	.
Cc1cc(Cl)ccc1OCCCC(=O)NO	i	3	i	-6	i
COc1ccc2c(c1)CCc1c(C(=O)N3CCCCCC3)noc1-2	.	-1	.	6	.
CC(=O)N1CCC(Nc2ccc(C)cc2)CC1	.	-7	.	4	.
Cc1cc(NC(=O)c2cc3n(n2)C(C(F)(F)F)CC(c2ccco2)N3)no1 (configuration not stated)	.	9	.	-3	.
O=C(O)CC(Cc1ccccc1)c1ccc2c(c1)OCO2 (configuration not stated)	.	5	.	-1	.
CC(C(=O)NCCCN1CCOCC1)n1cccc1C(=O)c1ccccc1 (configuration not stated)	i	-1	i	1	i
CCCOc1ccc(/C(O)=C2/C(=O)C(=O)N(CCCOC)C2c2cccnc2)cc1 (configuration not stated)	.	-5	.	-1	.
CC(=O)c1cc(-c2ccccc2)[nH]c1N1CCOCC1	.	3	.	-3	.
CN(Cc1ccccc1)C(=O)CCNS(=O)(=O)c1ccc2c(c1)oc(=O)n2C	.	-7	.	-4	.
CCc1ccc(-c2nc(CSCC(=O)N3CCN(c4ncccn4)CC3)c(C)o2)cc1	.	10	.	-2	.
Cc1csc(NC(=O)CCn2c(=O)sc3ccccc32)n1	.	12	.	1	.
CCn1cc(C(=O)NCc2cccnc2)c2cc(OC)c(OC)cc2c1=O	.	-3	.	-1	.
O=C(CCS(=O)(=O)c1cccc2nonc12)N1CCCc2ccccc21	.	-9	.	-8	.
Cc1cn([C@H]2C=C[C@@H](CO)O2)c(=O)[nH]c1=O	i	4	i	3	i
O=C(Nc1ccc2c(c1)OCCO2)c1ccc(NC(=O)C2CCCO2)cc1 (configuration not stated)	.	0	.	0	.
Cc1ccc(-n2ncc3c(N4CCN(c5ccccc5)CC4)ncnc32)c(C)c1	i	-4	71%	-1	i
O=C(O)c1ccc2c(c1)C(=O)N(c1cc(C(=O)O)ccc1Br)C2=O	.	8	.	8	.
CCCCNC(=O)CSc1cc(=O)n(C)c2ccccc12	.	2	.	3	.
Later entries:
SMILES	VCAM-1 down	FPR binder	VCAM-1 down imaging	FPRL1 ligand	VCAM-1 up imaging
Cc1n[nH]c(C)c1S(=O)(=O)N1CCN(C(=O)c2ccco2)CC1	.	4	.	6	.
O=C(C1CCCN(S(=O)(=O)c2cnc[nH]2)C1)N1CC(=O)N(CCc2ccccc2)C(=O)C1 (configuration not stated)	i	4	i	4	i
O=C(CC1Oc2ccccc2NC1=O)NCCCN1CCN(Cc2ccccc2)CC1 (configuration not stated)	.	0	.	-2	.
O=C(NCc1ccco1)c1c2c(nc3ccccc13)CCC2	i	-5	i	-1	i
Cc1nn(C)cc1CNC(=O)C1C2CCC(O2)C1C(=O)O (configuration not stated)	.	-2	.	-8	.
O=C(NCc1ccccc1)N1CCn2c(nc3ccccc32)C1	i	1	i	9	i
COc1ccc(CN2C(=O)[C@@H]3C(c4ccc(F)cc4)=NO[C@@H]3C2=O)cc1	i	-1	i	-3	i
O=C(CN1c2cccc3cccc(c23)S1(=O)=O)N1CCOCC1	i	10	i	2	i
COc1ccc(C2C(C(=O)N3CCOCC3)CCC(=O)N2c2ccc(OC)cc2)cc1 (configuration not stated)	.	14	.	7	.
CC(CN1CCN(C)CC1)OC(=O)c1ccc(Cl)cc1Cl (configuration not stated)	i	-3	i	-5	i
CCOC(=O)CSC1=C(C#N)C(c2ccc(Cl)cc2)C(C(=O)OC)C(=O)N1 (configuration not stated)	i	8	i	-3	i
Cc1ccc(S(=O)(=O)Cc2ccc(C(=O)NCCCN3CCCC3=O)o2)cc1	.	-6	.	3	.
CS(=O)(=O)N1Cc2ccccc2CC1C(=O)Nc1ccccc1C(N)=O (configuration not stated)	.	-3	.	-4	.
O=C1C2CCCN2C(c2cccc(F)c2)N1c1cccc(Cl)c1 (configuration not stated)	.	2	.	0	.
COc1cc(NS(=O)(=O)c2ccc(N)cc2)nc(OC)n1	i	-4	i	1	i
CC(=Nc1cccc(O)c1)c1sc2ccccc2c1O	i	-10	i	-25	i
Cn1cnc(S(=O)(=O)N2CCc3ccccc32)c1	.	1	.	4	.
CC(=O)c1ccccc1OCCCN1CCCCC1	.	3	.	1	.
Cc1[nH]c(=O)[nH]c(=O)c1S(=O)(=O)N1CCN(c2cccc(Cl)c2)CC1	i	-1	i	2	i
COC(=O)C(C)Sc1nnc(Cc2cc(=O)[nH]c(=O)[nH]2)n1-c1cccc(OC)c1 (configuration not stated)	.	-6	.	-4	.
COc1cccc(C2=NOC(C(=O)NC(C)C)C2)c1 (configuration not stated)	.	-2	.	1	.
O=C(CNS(=O)(=O)c1ccc(Br)s1)NCC1COc2ccccc2O1 (configuration not stated)	.	3	.	0	.
COc1ccc(OC)c2sc(N3CCCCC3)nc12	.	-2	.	8	.
Cc1nc2ccccc2c2oc(C(=O)Nc3ccc4c(c3)OCCO4)cc12	.	-2	.	2	.
COc1cccc2sc(Nc3nc(C)c(C(C)=O)s3)nc12	.	-1	.	9	.
Next section.
SMILES	VCAM-1 down	FPR binder	VCAM-1 down imaging	FPRL1 ligand	VCAM-1 up imaging
CC1CCCN(S(=O)(=O)c2ccc3c(c2)CCN3C(=O)C2CCC2)C1 (configuration not stated)	.	5	.	1	.
COc1cccc(-c2nn(C)c3sc(C(=O)N4CCN(c5ccccn5)CC4)cc23)c1	.	-8	.	-6	.
c1ccc(-c2nc(-n3ccnc3)nc(-n3ccnc3)n2)cc1	.	14	.	1	.
COc1ccc(-c2nc(C#N)c(NCCCN3CCOCC3)o2)cc1	.	2	.	3	.
COc1ccc(/C(O)=C2/C(=O)C(=O)N(CC3CCCO3)C2c2ccc(OC)c(OC)c2)cc1 (configuration not stated)	.	0	.	-8	.
COc1ccc(OC)c(NC(=O)CNC(=O)Cn2cnc3ccccc3c2=O)c1	.	-2	.	-8	.
CCOC(=O)N1CCN(C(=O)c2cc3sccc3n2C)CC1	.	-4	.	-6	.
CSc1ccccc1NC(=O)CN(c1ccccc1)S(=O)(=O)N(C)C	i	3	i	-3	i
Cc1ccc(-n2nnnc2SCC(=O)N2CCN(C(=O)c3ccco3)CC2)c(C)c1	i	-4	i	-3	i
CC(C)OCCCNC(=O)C1CCC(=O)N1C(C)C (configuration not stated)	.	6	.	2	.
CCc1ccccc1NC(=O)C1CCCN(S(=O)(=O)c2c(C)noc2C)C1 (configuration not stated)	.	0	.	-2	.
O=C(O)c1cc2nc(C3CC3)cc(C(F)(F)F)n2n1	.	-2	.	-2	.
O=C(c1ccco1)N1CCN(C(=O)c2sccc2-c2ccccc2)CC1	i	-6	i	2	i
O=C(O)c1ccccc1NS(=O)(=O)c1ccc2c3c(cccc13)C(=O)N2	.	0	.	-6	.
COc1cc2nc(SCC(=O)NCc3ccco3)n(Cc3ccc(Cl)cc3)c(=O)c2cc1OC	.	-1	.	-2	.
Cc1ccc(-n2nc3c(c2NC(=O)c2c(-c4ccccc4Cl)noc2C)CSC3)cc1	.	-1	.	4	.
CC1=C(C(=O)Nc2ccc(Cl)cc2)C(c2cccs2)n2nnnc2N1 (configuration not stated)	.	-16	.	8	.
CC1CCCCN1CCNC(=O)c1cnn2ccccc12 (configuration not stated)	.	1	.	2	.
O=C(CCS(=O)(=O)c1cc(Br)cc2c1N(C(=O)C1CC1)CC2)NCc1ccco1	.	4	.	-3	.
CCc1ccccc1NC1c2ccccc2C(=O)N1c1cccnc1 (configuration not stated)	.	-4	.	7	.

These rows are one share of the data, so the mix of outcomes need not match the whole.
